Screening data: PubChem BioAssay, National Center for Advancing Translational Sciences (NCATS)
miR-21 FLuc – raises the signal of a miR-21 reporter. Potency, µM (series often up to 38.3 µM), for the others: top-dose reporter change, positive = more light. AID 2288. HeLa miR-21 FLuc reporter, luciferase, 48 h. 340,000 tested, under 10 active; active = well fitted rising curve with a large enough effect; inconclusive = small, poorly fitted or top-dose-only effect; inactive = no such curve, though single readings can be large or run the other way;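 note: % of control where 0% means no effect; miR-21 action dims this reporter so a rising signal means less miR-21 action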
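HeLa cells endogenously expressing miR-21, stably carrying CMV-driven firefly luciferase with a downstream miR-21 binding site, 2000 cells/well. Titrations up to approximately 40 uM, 48 hours; luciferase luminescence read.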
* hit, by the source's call; ? = inconclusive. A portion of the library; rates above refer to the full screens.

miR-21 FLuc	SMILES
1%	COc1ccc(CNC(=O)c2ccc(NC(=O)N3CC4CCCN4c4ccccc43)cc2)cc1 (stereo not drawn)
-21%	CCc1ccc(NC(=O)N(Cc2cn(CC)c3ccccc23)C2CCCCC2)cc1
-9%	O=C(CSc1nc2c([nH]c3ccccc32)c(=O)n1-c1ccc(F)cc1)Nc1ccc2c(c1)OCO2
2%	O=C(CC1N=C2c3ccccc3N=C(SCc3cccc(Cl)c3)N2C1=O)NC1CCCCC1 (stereo not drawn)
-4%	Cc1nc2nc(SCC(=O)NC3CCC(C)CC3)nn2c(C)c1Cc1ccccc1Cl (stereo not drawn)
2%	COc1cccc(CNC(=O)CCn2cccn2)c1
-44%	Cc1ccc2nc(-c3cccs3)c(Nc3ccc4c(c3)OCCO4)n2c1
13%	CCc1ccc(NC(=O)CCn2nc(-c3ccccc3OC)c3c(C)cc(C)nc32)cc1
-1%	COC(=O)c1cc2sc(Cl)cc2n1Cc1c(C)cc(C)cc1C
-1%	C=Cc1ccc(COc2ccc3oc(-c4ccccc4)c(C(=O)OCC)c3c2)cc1
-7%	CCSc1ccccc1C(=O)N1CCN(c2nc3ccccc3s2)CC1
-11%	Cc1ccccc1OCC(=O)OCc1cc(=O)n2nc(C3CCCCC3)sc2n1
3%	Cc1ccc(S(=O)(=O)c2nnn3c2nc(N2CCCC2)c2sccc23)cc1C
-38%	Cc1ccccc1Nc1cc(C(=O)NC2CCC(C)CC2)c2ccccc2n1 (stereo not drawn)
-1%	Cc1ccccc1Cn1c(SCc2ccc(C(=O)NC3CCCCC3)cc2)nc2ccncc21
-1%	O=c1c2oc3ccccc3c2n(Cc2ccc(Cl)cc2)c(=O)n1Cc1ccc2c(c1)OCO2
-5%	CCc1ccccc1NC(=O)C1CCN(S(=O)(=O)c2ccc3[nH]c(=O)ccc3c2)CC1
-24%	O=C(CSc1nccn1Cc1ccc(F)cc1)Nc1ccc2c(c1)OCCO2
-5%	Cc1ccc(Cl)cc1N1CCN(C(=O)c2cnn(C(C)(C)C)c2C2CCN(C(=O)OC(C)(C)C)CC2)CC1
0%	O=C(NCCCN1CCCCC1)c1cc(Sc2ccc(Cl)cc2)nc2ccccc12
-1%	CCOC(=O)CSc1nc2sc3c(c2c(=O)n1Cc1ccccc1)CCC(C(C)(C)C)C3 (stereo not drawn)
0%	CCOC(=O)c1noc2ncnc(NCc3ccccc3OC)c12
3%	O=C(NC1CC(=O)N(c2ccc(F)cc2)C1)c1ccco1 (stereo not drawn)
1%	Cc1cccc(NC(=O)CSc2nncn2C)c1
0%	Cc1cccc(N2CCN(C(=O)C3CCN(S(=O)(=O)c4cn(C)cn4)CC3)CC2)c1C
-13%	CCOc1ccc(C(=O)Nc2ccc(C(=O)OCc3cc(=O)n4ccsc4n3)cc2)cc1
-9%	COc1ccc(-c2ccc(=O)n(CC(=O)Nc3ccc(Br)cc3F)n2)cc1
3%	COc1cccc(-c2cc(C(=O)Nc3ccc(OC)cc3OC)no2)c1
-46%	CCCCN(C)S(=O)(=O)c1ccc(C(=O)Nc2ccc(-c3nc4ccc(C)cc4s3)cc2)cc1
16%	CCOC(=O)c1c(Oc2ccc(OC)cc2)nnc(-c2ccccc2)c1-c1ccccc1
-3%	Cn1c(=O)oc2cc(S(=O)(=O)N3CCCC(C(=O)NCCc4ccc(Cl)cc4)C3)ccc21 (stereo not drawn)
25%	CCn1nc(-c2ccccc2)c(-c2ccccc2)c(C(=O)Nc2ccc(NC(C)=O)cc2)c1=O
29%	CCOc1ccc(-c2nc(CSCC(=O)NCCc3ccc(OCC)c(OCC)c3)c(C)o2)cc1
21%	Cc1ccc2c(c1)C(c1ccc(F)cc1)N(C(=O)c1ccc(S(=O)(=O)N3CCCCC3)cc1)CC(=O)N2 (stereo not drawn)
27%	Cc1ccc(O)c(NC(=O)c2ccc(Br)c(S(=O)(=O)N3CCCCC3)c2)c1
9%	COc1ccc(CCNC(=O)c2cc3cccc4c3n2CC(C)S4)c(OC)c1OC (stereo not drawn)
1%	CCOc1ccc(-n2c(SCC(=O)N3CCCC3)nc3c([nH]c4ccccc43)c2=O)cc1
2%	Cc1cccc(-c2noc(C3CC(=O)N(c4ccc5c(c4)OCCO5)C3)n2)c1 (stereo not drawn)
27%	Cc1cccc(N2CCN(C(=O)Cn3ncc4c3-c3cc(C)ccc3OC4)CC2C)c1 (stereo not drawn)
?	Cn1nccc1C(=O)NCc1ccc2c(c1)CCN2C(=O)c1ccc(Cl)cc1

Single entries from the results shown.
Cc1cccc(-c2noc(C3CC(=O)N(c4ccc5c(c4)OCCO5)C3)n2)c1 (stereo not drawn) in miR-21 FLuc: 2%
O=C(NC1CC(=O)N(c2ccc(F)cc2)C1)c1ccco1 (stereo not drawn) in miR-21 FLuc: 3%
Cc1cccc(N2CCN(C(=O)Cn3ncc4c3-c3cc(C)ccc3OC4)CC2C)c1 (stereo not drawn) in miR-21 FLuc: 27%

Rewritten with each value named: part of the list above
Molecule: Cc1ccccc1Cn1c(SCc2ccc(C(=O)NC3CCCCC3)cc2)nc2ccncc21
  miR-21 FLuc = -1%
Molecule: O=c1c2oc3ccccc3c2n(Cc2ccc(Cl)cc2)c(=O)n1Cc1ccc2c(c1)OCO2
  miR-21 FLuc = -1%

Next entries follow.
miR-21 FLuc	SMILES
-1%	Cc1cccc(C(=O)OCc2cc(=O)n3nc(C4CCCCC4)sc3n2)c1
4%	COc1ccc(-n2nc(C(=O)NCCc3ccc(Cl)cc3)c3c4ccccc4n(C)c3c2=O)cc1
-27%	Cc1ccc2nc(-c3ccc(NC(=O)c4ccccc4S(C)(=O)=O)cc3)sc2c1
6%	COc1ccccc1NC(=O)CSC1=Nc2ccccc2C2=NC(CCC(=O)NCc3cccs3)C(=O)N12 (stereo not drawn)
-21%	COc1cc(C2Nc3ccccc3-c3nnc(SCc4ccc(C)cc4)nc3O2)cc(OC)c1O (stereo not drawn)
25%	Cc1ccc(C)c(NC(=O)/C(C#N)=C/c2ccc(C(C)C)cc2)c1
0%	CC(NC(=O)Cc1ccc(NC(=O)N2CCCCc3ccccc32)cc1)c1ccccc1 (stereo not drawn)
13%	CCOC(=O)c1cc(C(=O)Nc2ccc(S(=O)(=O)Nc3ccc(OC)cc3)cc2)nn1C
1%	COc1cc(C(=O)OCc2cc(=O)n3nc(C4CCCCC4)sc3n2)cc(OC)c1OC
-5%	COc1ccccc1NC(=O)c1c(NC(=O)Cc2ccccc2)sc2c1CCC(C(C)(C)C)C2 (stereo not drawn)
-14%	Cc1ccc2cccc(NC(=O)c3ccc(C#N)cc3F)c2n1
-12%	CCOC(=O)c1ccc(NS(=O)(=O)c2ccc(Br)s2)cc1
-1%	COc1ccc(Cl)cc1NC(=O)c1c(C(=O)Nc2cccc(C)c2C)sc2nc(C)cc(=O)n12
-1%	Cc1cccc(OC(=O)CSc2nnc(CNC(=O)c3ccccc3)o2)c1C
-1%	COc1ccc2c(c1)c(=O)c(C(=O)c1ccc(Cl)cc1)cn2CC(=O)Nc1ccc2c(c1)OCCO2
-2%	CCC(C(=O)Nc1ccc(F)cc1F)n1nc(-c2ccccc2)c2c(c1=O)CCCC2 (stereo not drawn)
-5%	COc1ccc(OC)c(-c2noc(CSc3nnc(Cc4ccccc4)n3-c3cccc(C)c3)n2)c1
-5%	O=C(COc1ccc(Cl)cc1)Nc1ccc2nc(SCC(=O)N3CCCC3)sc2c1
?	O=C(Nc1ccc(-c2cc(C(F)(F)F)nn2-c2ccccc2)cc1)c1cccc(F)c1
2%	CCc1ccc(-n2c(N3CCN(c4cccc(C)c4C)CC3)nc3ccccc3c2=O)cc1

3 of the entries above in order of their number in miR-21 FLuc, smallest number first:
miR-21 FLuc	SMILES
-5%	COc1ccccc1NC(=O)c1c(NC(=O)Cc2ccccc2)sc2c1CCC(C(C)(C)C)C2 (stereo not drawn)
-2%	CCC(C(=O)Nc1ccc(F)cc1F)n1nc(-c2ccccc2)c2c(c1=O)CCCC2 (stereo not drawn)
-1%	Cc1cccc(C(=O)OCc2cc(=O)n3nc(C4CCCCC4)sc3n2)c1

(listing goes on)
miR-21 FLuc	SMILES
0%	O=C(NC1(C(F)(F)F)C(=O)Nc2c1c(=O)[nH]c(=O)n2CCc1ccccc1)c1ccc(Cl)cc1 (stereo not drawn)
-1%	CCNc1oc(-c2ccc(COc3ccc(Cl)cc3)o2)nc1C#N
4%	COC(=O)c1c(NC(=O)c2ccc(S(=O)(=O)N3CCC(C)CC3)cc2)sc2c1CCN(C)C2
-20%	O=C(NCc1ccco1)c1ccc(Cn2c(SCc3ccccc3)nc3cccnc32)cc1
-29%	COc1ccc(S(=O)(=O)Nc2cccc(-c3ccc(N4CCCCCC4)nn3)c2)cc1F
12%	CCc1ccc(NC(=O)CSC2=Nc3ccccc3C3=NC(CCC(=O)NCc4cccs4)C(=O)N23)cc1 (stereo not drawn)
-5%	COc1ccc(/C=C2\SC(=Nc3ccccc3)NC2=O)cc1
-4%	Cc1ccc(N2CCN(C(=O)NCc3noc4ccccc34)CC2C)cc1 (stereo not drawn)
-3%	Cc1c(C(=O)Nc2c(F)cccc2F)sc2ncn(Cc3ccccc3F)c(=O)c12
13%	CC1=C(C(=O)OC2CCCC2)C(c2c(F)cccc2Cl)CC(=O)N1 (stereo not drawn)
0%	CC(CNC(=O)C1CCN(S(=O)(=O)c2ccc3c(ccn3C)c2)CC1)c1ccccc1 (stereo not drawn)
?	CCc1cccc(NC(=O)c2ccc(CNS(=O)(=O)c3ccc4c(c3)C(C)(C)C(=O)N4C)cc2)c1
?	CCC(C(=O)Nc1cc(OC)ccc1OC)n1nc(-c2ccccc2)c2c(c1=O)CCCC2 (stereo not drawn)
16%	CCc1ccc(NC(=O)C2CCCN2S(=O)(=O)c2cccc3nsnc23)cc1 (stereo not drawn)
-12%	COc1ccc(-n2c(C)nnc2SCc2nc(-c3ccc(OC)c(OC)c3)no2)cc1
5%	COc1ccc(CNC(=O)c2ccc(Sc3ccc(Cl)cc3)c(NC(C)=O)c2)c(OC)c1
-4%	Cc1ccc(-c2noc(CN(C3CCCCC3)S(=O)(=O)c3ccc(C)cc3)n2)cc1
?	Cc1nn(C)c2c1c(-c1ccccc1)cc(=O)n2CC(=O)NC(C)(C)C
-61%	COc1ccc(NC(=O)c2sc3nc[nH]c(=O)c3c2C)cc1
-2%	CCOC(=O)c1cc(S(=O)(=O)NCc2ccc(F)cc2)[nH]n1

A second format for two compounds above.
molecule: O=C(NCc1ccco1)c1ccc(Cn2c(SCc3ccccc3)nc3cccnc32)cc1
  miR-21 FLuc: -20%
molecule: COc1ccc(S(=O)(=O)Nc2cccc(-c3ccc(N4CCCCCC4)nn3)c2)cc1F
  miR-21 FLuc: -29%

(cont.)
miR-21 FLuc	SMILES
4%	CCc1ccc(OCC(=O)N(Cc2ccco2)Cc2ccco2)cc1
-8%	O=C(CC1N=C2c3ccccc3N=C(SCc3ccccc3F)N2C1=O)NCCc1ccccc1 (stereo not drawn)
-4%	Cc1cccc(N2C(=O)CSC23C(=O)N(Cc2cccc(C(F)(F)F)c2)c2ccccc23)c1 (stereo not drawn)
2%	Cc1ccc(OCc2nc(-c3ccc(C(=O)NCCc4ccc(Cl)cc4)cc3)oc2C)cc1
3%	CCn1cc(S(=O)(=O)c2ccccc2)c(=O)c2cc(F)c(N3CCN(c4ccccc4)CC3)cc21
0%	Cc1ccc(S(=O)(=O)N2CCN(Cc3cc(=O)n4nc(-c5ccccc5Cl)sc4n3)CC2)cc1
0%	COc1ccc(CNC(=O)C2CCN(c3nc4ccccc4[nH]3)CC2)cc1OC
1%	Cc1ccc(CNC(=O)Cn2c(=O)ccc3cc(S(=O)(=O)N4CCCC4)ccc32)cc1
1%	COc1cc(Cl)c(C)cc1NC(=O)Cn1cc(S(=O)(=O)N2CCC(C)CC2)c2ccccc2c1=O
-16%	COc1cc(C)ccc1OCCSc1nc(-c2cccc(C)c2)nc2cc(=O)[nH]n12
-1%	CCC(C)NC(=O)CCc1c(C)nc2c(c(C)nn2-c2ccc(C)cc2)c1C (stereo not drawn)
?	CN(C)c1ccc(CNC(=O)CCCn2ccc3cc(S(=O)(=O)N4CCCC4)ccc32)cc1
-11%	CCn1cc(C(=O)N2CCN(c3cc(Cl)ccc3C)CC2)c2cc(OC)c(OC)cc2c1=O
-2%	Cc1ccc2c(=O)cc(CSc3ccccc3)[nH]c2c1C
-2%	Cc1nc(-c2ccc(S(=O)(=O)NCc3ccc(F)cc3)cc2)co1
-2%	COc1ccc(OC)c(NC(=O)N(C)CCc2c(C)nn(C)c2C)c1
-1%	O=C(CN1CCN(Cc2ccc(F)cc2)C1=O)NCc1ccccc1Cl
14%	CCOCCCNC(=O)c1c[nH]c2ccc(S(=O)(=O)N(C)c3ccc(Cl)cc3F)cc2c1=O
-1%	COc1cc(-c2nc3n(n2)C(c2ccc(F)cc2)C(C(N)=O)=C(C)N3)cc(OC)c1OC (stereo not drawn)
7%	CCOC(=O)c1c(S(=O)(=O)N2CCC(C(=O)Nc3cccc(C)n3)CC2)c(C)n(C)c1C
-21%	Cc1ccc(NC(=O)c2sc3nc(-c4cccs4)ccc3c2N)cc1F
14%	Cc1ccc(Cl)cc1N1CCN(C(=O)C2CCCN(Cc3nc(-c4cccc(Cl)c4)oc3C)C2)CC1 (stereo not drawn)
-6%	COc1ccc(S(=O)(=O)Nc2ccc(-c3ccc(N4CCCC4)nn3)cc2)cc1F
-36%	O=C(NCc1ccccc1)c1cnc(N2CCCCC2)c2ccccc12
-1%	O=C(NCCCO)C(=O)Nc1c2c(nn1-c1ccc(F)cc1)CSC2
